# Source: PubChem BioAssay (Broad Institute)
# Vaccinia stage = blocks a specific stage of Vaccinia orthopoxvirus infection, primary screen, cell-based, single point. Vaccinia-infected cells, mCherry/Venus stage reporter fluorescence; hits give low values; some inactives read as strong as hits. activity change (mCherry), % (no concentration beside the values). 89,000 tested, 0.01% active. AID 1053133, 2014;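 active = mCherry past -33% and 40 or more points under the early reporter, replicates agreeing; inconclusive = past -33% without that gap or agreement; tested in A549 cells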;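 note: scaled between vehicle wells and reference inhibitor wells; 23 nL library stock went into each well; one replicate is shown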
# Vaccinia stage Venus = also measured in Vaccinia stage; calls as there; activity change (Venus), %; measured here: Venus reporter, other viral stage;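 negative = less Venus signal; first of two replicates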
# Numbers without * were called inactive; ? = inconclusive; . = not tested or not shown. A portion of the library; the hit share may differ from the screen's.
SMILES,Vaccinia stage,Vaccinia stage Venus
COCCNC(=O)C[C@@H]1CC[C@H]2[C@@H](COC[C@@H](O)CN2C(=O)c2cc(Cl)cc(Cl)c2)O1,-6.6,-4.5
COC(=O)[C@@H]1N[C@@H]2c3ccc(C4=CCCCC4)c(=O)n3C[C@@H]2[C@H]1CO,21.3,16.5
C[C@H]1CN([C@@H](C)CO)C(=O)c2cc(C#CC3CC3)cnc2O[C@H]1CN(C)S(=O)(=O)c1cccc(F)c1,-3.1,-4.1
CO[C@@H]1CN(C)C(=O)c2ccc(NC(=O)NC(C)C)cc2OC[C@H](C)NC[C@@H]1C,11.1,5.7
C[C@H]1CCCCO[C@H](CN(C)C(=O)NC2CCCCC2)[C@@H](C)CN([C@@H](C)CO)C(=O)c2cc(NS(=O)(=O)c3ccc(F)cc3)ccc2O1,?,.
C[C@H](CO)N1C[C@H](C)[C@H](CN(C)S(=O)(=O)c2ccc(Cl)cc2)Oc2ccc(NS(=O)(=O)c3cccs3)cc2C1=O,2.7,4.5
C[C@@H]1CN([C@H](C)CO)C(=O)c2cccc(NC(=O)NC3CCCCC3)c2O[C@H]1CN(C)Cc1ccc(C(=O)O)cc1,17.5,6.9
CC(C)NC(=O)Nc1ccc2c(c1)C(=O)N([C@@H](C)CO)C[C@H](C)[C@@H](CN(C)S(=O)(=O)c1ccccc1)OCCCC[C@@H](C)O2,-0.7,2.3
C[C@H](CO)N1C[C@H](C)[C@@H](CN(C)C)Oc2ccc(NC(=O)Nc3ccc(F)cc3)cc2C1=O,6.5,5.4
CCCc1cn(CC[C@H]2CC[C@@H](NC(=O)C3CC3)[C@H](CO)O2)nn1,-0.1,2.3
CC(C)c1ccc(NC(=O)C[C@H]2CC[C@H]3[C@@H](COc4ccc(NC(=O)c5ccno5)cc4C(=O)N3C)O2)cc1,?,.
CO[C@@H]1CN(C)C(=O)c2cc(NC(=O)Nc3ccccc3Cl)ccc2OC[C@@H](C)N(C(C)=O)C[C@H]1C,10.5,-2.0
COc1ccc(NC(=O)N(C)C[C@@H]2OCc3cn(nn3)CCCC(=O)N([C@@H](C)CO)C[C@H]2C)cc1,22.4,-0.4
O=C(C[C@@H]1CC[C@H](NC(=O)C2CCC2)[C@@H](CO)O1)NCC1CC1,0.5,-6.6
COc1ccc(-c2cnc3c(c2)C(=O)N([C@H](C)CO)C[C@@H](C)[C@H](CN(C)C(=O)CN(C)C)O3)cc1,8.3,5.1
COc1ccccc1C#Cc1ccc2c(c1)O[C@@H](CN(C)Cc1cccnc1)[C@@H](C)CN([C@H](C)CO)S2(=O)=O,1.0,0.1
C[C@H](CO)N1C[C@H](C)[C@H](CN(C)C)Oc2c(NC(=O)c3cnccn3)cccc2C1=O,16.5,5.2
CO[C@H]1CN(C)C(=O)c2cc(NS(=O)(=O)c3ccccc3)ccc2OC[C@H](C)N(C(=O)NC(C)C)C[C@@H]1C,15.8,5.3
CC=Cc1ccc2n(c1=O)C[C@@H]1[C@@H](CO)[C@H](C(=O)N3CCCCC3)N(C(=O)CC)[C@H]21 (mixture of isomers),11.1,-0.9
O=C1CN(S(=O)(=O)Cc2ccccc2)C[C@H]2[C@@H](c3ccc(C#CCC4CCCC4)cc3)[C@@H](CO)N12,-10.1,-16.1
O=C(Nc1ccc2c(c1)[C@@H]1C[C@@H](CC(=O)N3CCCCC3)O[C@@H](CO)[C@@H]1O2)NC1CCCC1,6.0,14.0
C/C=C/c1ccc([C@H]2[C@@H](CO)N(C(=O)NCCC)[C@H]2CN(C)C(=O)CC)cc1,17.0,12.6
O=C(CC1CC1)N1CC(=O)N2[C@H](CO)[C@H](c3ccc(-c4cccnc4)cc3)[C@@H]2C1,27.9,9.6
C[C@@H]1CN([C@@H](C)CO)C(=O)c2cccc(NC(=O)Nc3cccc4ccccc34)c2O[C@@H]1CN(C)Cc1ccc(C(F)(F)F)cc1,-13.5,5.9
COc1ccc(NC(=O)Nc2ccc3c(c2)[C@@H]2C[C@H](CC(=O)NC4CCCC4)O[C@@H](CO)[C@@H]2O3)cc1,1.9,3.7
CCNC(=O)c1cc2c(c(-c3cccc(-c4ccncc4)c3)n1)[C@@H](CCO)N(S(=O)(=O)CC)C2,-10.9,-12.9
O=C(C[C@H]1C=C[C@@H](NS(=O)(=O)c2ccc(F)cc2)[C@@H](CO)O1)NCc1ccccc1F,4.6,3.4
CCC(=O)N(C)C[C@H]1Oc2ncc(-c3ccc(C#N)cc3)cc2C(=O)N([C@@H](C)CO)C[C@H]1C,19.4,9.1
O=C(C[C@H]1CC[C@H]2[C@@H](COC[C@@H](O)CN2Cc2cc(F)ccc2F)O1)N[C@@H]1CCN(Cc2ccccc2)C1,?,.
CO[C@H]1CN(C)C(=O)c2ccc(NC(=O)c3cccc(F)c3)cc2OC[C@@H](C)N(C(C)=O)C[C@@H]1C,6.5,4.9
COCC(=O)N1CCCCN2[C@H](CO)[C@@H](c3ccc(C#Cc4ccc(OC)cc4)cc3)[C@@H]2C1,-21.0,-28.8
C[C@@H]1CCCCO[C@@H](CN(C)S(=O)(=O)c2ccc(Cl)cc2)[C@H](C)CN([C@@H](C)CO)C(=O)c2cc(NS(=O)(=O)c3ccccc3)ccc2O1,?,.
CCNC(=O)[C@@H]1[C@@H](CO)[C@@H]2Cn3c(ccc(-c4ccccc4F)c3=O)[C@@H]2N1CC1CC1,6.4,10.3
COc1cccc(S(=O)(=O)N2CC[C@H]3[C@H](CO)Nc4ccc(C#Cc5ccccc5)cc4[C@H]32)c1,19.3,5.5
O=C(N[C@@H]1CC[C@@H](CC(=O)N2CCc3ccccc3C2)O[C@H]1CO)C1CCC1,7.5,2.0
COc1ccc2c3c([nH]c2c1)[C@@H](CO)N(C)CC31CN(S(=O)(=O)c2cn(C)cn2)C1,15.3,4.2
CN(C)CCCCNC(=O)[C@@H]1C[C@@H]2C(=O)N[C@@H](CCCCN(C)C)C(=O)N2[C@@H]1c1ccc(O)cc1,12.1,1.8
C[C@H]1CN([C@@H](C)CO)C(=O)c2cccc(N(C)C)c2O[C@H]1CN(C)S(C)(=O)=O,15.0,6.4
COc1ccc(NC(=O)N(C)C[C@@H]2OCCCC[C@H](C)Oc3ccc(NS(=O)(=O)c4c(C)noc4C)cc3C(=O)N([C@@H](C)CO)C[C@H]2C)cc1,2.1,0.9
CC(=O)N(C)C[C@@H]1OCc2ccccc2-c2ccccc2C(=O)N([C@H](C)CO)C[C@H]1C,16.9,0.8
O=C(C1CCCCC1)N1CC2(C1)[C@H](c1ccccc1)[C@H](CO)N2Cc1cncnc1,8.1,7.6
COc1ccc(S(=O)(=O)N(C)C[C@H]2Oc3ccc(NS(=O)(=O)c4cn(C)cn4)cc3CC(=O)N([C@H](C)CO)C[C@H]2C)cc1,9.6,-0.6
Cc1noc(C)c1NC(=O)N(C)C[C@@H]1OCCCC[C@H](C)Oc2ccc(NC(=O)C3CCCCC3)cc2C(=O)N([C@@H](C)CO)C[C@@H]1C,12.5,9.3
C[C@H](CO)N1C[C@H](C)[C@@H](CN(C)S(C)(=O)=O)Oc2ccc(NC(=O)Cc3cn(C)c4ccccc34)cc2C1=O,10.9,9.6
C[C@H](CO)N1C[C@H](C)[C@H](CN(C)S(=O)(=O)c2ccccc2)Oc2ccc(NC(=O)NC3CCCCC3)cc2CC1=O,-11.5,-7.0
O=C(Nc1ccc(F)cc1)N[C@H]1CC[C@H](CCn2cc(-c3ccc(F)cc3)nn2)O[C@H]1CO,9.6,7.8
O=C(C[C@H]1C[C@H]2c3cc(NC(=O)c4cccnc4)ccc3O[C@H]2[C@@H](CO)O1)NC1CCCCC1,12.8,11.5
C[C@H](CO)N1C[C@H](C)[C@@H](CN(C)C(=O)c2ccc(F)cc2)Oc2ncc(-c3ccc(F)cc3)cc2C1=O,-24.2,-14.4
C[C@@H]1CN([C@H](C)CO)C(=O)c2cc(NC(=O)Nc3ccc(C(F)(F)F)cc3)ccc2O[C@@H](C)CCCCO[C@@H]1CN(C)Cc1ccc(C(=O)O)cc1,19.2,10.8
O=C(C[C@H]1CC[C@@H](NC(=O)C2CC2)[C@H](CO)O1)NCc1ccncc1,10.2,9.2
CC=Cc1ccc2n(c1=O)C[C@@H]1[C@@H](CO)[C@H](C(=O)N(C)C)N(Cc3cccc(F)c3)[C@H]21 (mixture of isomers),21.7,12.9
O=C(C[C@H]1C[C@@H]2c3cc(NS(=O)(=O)c4ccc(F)cc4)ccc3O[C@@H]2[C@@H](CO)O1)NCc1ccccn1,6.7,13.3
C[C@H]1CN([C@@H](C)CO)C(=O)c2cc(NC(=O)Cc3ccccc3)ccc2O[C@@H]1CN(C)Cc1ccc(Cl)c(Cl)c1,?,.
CCC(=O)N1[C@@H]2c3ccc(-c4cccc(F)c4)c(=O)n3C[C@@H]2[C@@H](CO)[C@@H]1C(=O)N1CCCCC1,19.4,11.3
CCC(=O)Nc1ccc2c(c1)OC[C@@H](C)N(S(=O)(=O)c1cn(C)cn1)C[C@@H](C)[C@H](OC)CN(C)C2=O,-0.5,-3.8
O=C(C[C@@H]1C[C@@H]2c3cc(NC(=O)Nc4ccccc4F)ccc3O[C@@H]2[C@H](CO)O1)NCc1cc(F)ccc1F,7.8,-0.4
O=C(Nc1ccc(F)cc1)N1CCCCN2[C@@H](CO)[C@H](c3ccc(-c4cccc(F)c4)cc3)[C@@H]2C1,?,.
CN(C[C@@H]1N[C@H](CO)[C@@H]1c1ccc(-c2cccc(F)c2)cc1)S(C)(=O)=O,14.7,12.5
COCC(=O)N(C)C[C@H]1Oc2cc(C#C[C@H](C)O)ccc2S(=O)(=O)N([C@H](C)CO)C[C@@H]1C,5.3,4.1
Cc1noc(C)c1S(=O)(=O)Nc1ccc2c(c1)C(=O)N([C@H](C)CO)C[C@H](C)[C@@H](CN(C)S(=O)(=O)c1cn(C)cn1)O2,1.5,5.8
# Additional structures:
SMILES,Vaccinia stage,Vaccinia stage Venus
CNC[C@H]1Oc2ccc(NC(=O)NC(C)C)cc2C(=O)N([C@H](C)CO)C[C@H]1C,10.9,8.5
CCC(=O)N1CC2(C1)[C@@H](c1ccccc1)[C@@H](CO)N2C(=O)c1cccnc1,-1.2,2.9
CCCC#Cc1ccc2c(c1)O[C@@H](CN(C)Cc1cncnc1)[C@H](C)CN([C@@H](C)CO)S2(=O)=O,-18.0,-13.0
CCCN(C)C[C@@H]1Oc2cc(C#Cc3ccc(F)cc3)ccc2S(=O)(=O)N([C@H](C)CO)C[C@H]1C,5.8,-3.5
COc1ccc(S(=O)(=O)N(C)C[C@H]2Oc3ccc(NC(=O)Cc4cn(C)c5ccccc45)cc3CC(=O)N([C@@H](C)CO)C[C@@H]2C)cc1,-8.6,-11.1
O=C(C[C@@H]1C[C@H]2c3cc(NC(=O)CC4CC4)ccc3O[C@H]2[C@@H](CO)O1)NCc1ccc(-c2ccccc2)cc1,-3.5,-4.8
C[C@H]1CN([C@@H](C)CO)S(=O)(=O)c2ccc(C3=CCCCC3)cc2O[C@H]1CN(C)S(=O)(=O)c1cn(C)cn1,-22.6,-22.9
CCCC#Cc1cnc2c(c1)C(=O)N([C@@H](C)CO)C[C@@H](C)[C@@H](CN(C)C(=O)C1CCOCC1)O2,9.8,-2.1
COCC(=O)N(C)C[C@H]1Oc2cc(-c3cccnc3)ccc2S(=O)(=O)N([C@H](C)CO)C[C@@H]1C,10.3,8.8
CC(C)NC(=O)Nc1ccc2c(c1)C(=O)N([C@@H](C)CO)C[C@@H](C)[C@@H](CN(C)Cc1ccc(C(F)(F)F)cc1)OCCCC[C@H](C)O2,?,.
O=C(C[C@H]1C[C@@H]2c3cc(NC(=O)CC4CC4)ccc3O[C@@H]2[C@H](CO)O1)NCc1ccc(Cl)cc1,-0.4,2.7
C[C@H]1CN([C@@H](C)CO)C(=O)c2cc(NS(=O)(=O)c3ccccc3)ccc2O[C@@H]1CN(C)C,9.7,7.3
O=C(CC1CC1)N1CC2(C1)[C@H](c1ccccc1)[C@@H](CO)N2C(=O)C1CCOCC1,2.6,1.8
COc1cccc(C(=O)Nc2ccc3c(c2)C(=O)N(C)[C@@H]2CC[C@@H](CC(=O)NCC(F)(F)F)O[C@H]2CO3)c1,3.2,3.7
C[C@H]1CN([C@@H](C)CO)C(=O)c2cc(NS(C)(=O)=O)ccc2O[C@H]1CN(C)Cc1ccccc1,1.8,3.7
C[C@H](CO)N1C[C@H](C)[C@@H](CN(C)Cc2cncnc2)Oc2ncc(-c3cccc(F)c3)cc2C1=O,26.1,16.3
C[C@H](CO)N1C[C@H](C)[C@@H](CN(C)S(=O)(=O)c2ccccc2)OCCCC[C@H](C)Oc2ccc(NS(=O)(=O)c3cn(C)cn3)cc2C1=O,4.9,5.3
COc1ccccc1NC(=O)N(C)C[C@@H]1Oc2ncc(C#CC(C)C)cc2C(=O)N([C@@H](C)CO)C[C@@H]1C,-8.8,-2.9
CC=Cc1ccc2n(c1=O)C[C@H]1[C@H](CO)[C@@H](C(=O)N[C@H](C)c3ccccc3)[C@@H]2N1Cc1ccccc1 (mixture of isomers),4.7,-0.1
